# High-throughput results from PubChem BioAssay.
# Arbovirus inh: antivirals against arbovirus infection, primary screen, cell-based, full library, 10K replicate subset | inhibition, % at 10 µM | AID 1251, 2008 | arbovirus infection cell-based antiviral screen | 200,000 compounds, 0.37% hits;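 active = inhibition from about 30%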;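 note: bluetongue infection of BSR cells; cell survival read as ATP light after 72 h; 0% = infected wells without compound and 100% = uninfected wells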
# YopH inh: YopH tyrosine phosphatase inhibitors, primary screen, biochemical, fluorescence Ex485/Em525; 140,000 compounds, 0.16% hits; YopH tyrosine phosphatase [Yersinia enterocolitica]; inhibition, %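 (about 10 µM by stock and volumes)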;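 active = inhibition of 50% or more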;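 note: controls were vehicle for no effect and minimum signal wells for full effect; inactives centre near -20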
# Mtb growth: M. tuberculosis H37Rv growth inhibitors, H37Rv strain (AID 1626); M. tuberculosis H37Rv growth inhibition; higher % means a stronger effect; 220,000 compounds, 0.95% hits; one-dose inhibition, % at 10 µM; IC50 in µM for titrated hits;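 active = confirmed in a dose series; inconclusive = inhibition above 80% but not taken into the dose series; inactive = below 80% or under 30% at every dose of the series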;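 note: bacteria incubated seven days before Alamar blue readout; 0% = bacteria only wells and 100% = bacteria with antibiotic wells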
# Mtb betalactam: beta-lactam sensitization of Mtb H37Rv, H37Rv; M. tuberculosis H37Rv growth with meropenem, percent inhibition; hits of this screen are not shown here; inhibition, % at 25 µM; 330,000 compounds, 0.27% hits;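 active = about 74% or more and at least 40 points above the plate without the antibiotic, then above 30% in a dose series; inconclusive = first-round hits that could not be retested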;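 note: growth measured after seven days incubation then overnight dye step; 0% = bacteria only wells and 100% = bacteria with antibiotic; twin plates without the antibiotic show which effects depend on it; some results filed as inactive read as strong as hits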
# RecA splice inh: Mtb RecA intein splicing inhibitors, primary screen, biochemical, fluorescence, HTS | 290,000 compounds, 0.75% hits | inhibition, %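 (about 9 µM by stock and volumes)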 | cell-free RecA intein splicing | AID 2221, 2009 | Protein RecA (Mycobacterium tuberculosis (strain ATCC 25618 / H37Rv)), P9WHJ3; in the data active = inhibition above about 30%; inconclusive = no clear call, values can overlap the other calls;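 note: 0% = vehicle wells and 100% = reference inhibitor control wells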
# Target sequence (P9WHJ3 whole entry, looked up, canonical isoform): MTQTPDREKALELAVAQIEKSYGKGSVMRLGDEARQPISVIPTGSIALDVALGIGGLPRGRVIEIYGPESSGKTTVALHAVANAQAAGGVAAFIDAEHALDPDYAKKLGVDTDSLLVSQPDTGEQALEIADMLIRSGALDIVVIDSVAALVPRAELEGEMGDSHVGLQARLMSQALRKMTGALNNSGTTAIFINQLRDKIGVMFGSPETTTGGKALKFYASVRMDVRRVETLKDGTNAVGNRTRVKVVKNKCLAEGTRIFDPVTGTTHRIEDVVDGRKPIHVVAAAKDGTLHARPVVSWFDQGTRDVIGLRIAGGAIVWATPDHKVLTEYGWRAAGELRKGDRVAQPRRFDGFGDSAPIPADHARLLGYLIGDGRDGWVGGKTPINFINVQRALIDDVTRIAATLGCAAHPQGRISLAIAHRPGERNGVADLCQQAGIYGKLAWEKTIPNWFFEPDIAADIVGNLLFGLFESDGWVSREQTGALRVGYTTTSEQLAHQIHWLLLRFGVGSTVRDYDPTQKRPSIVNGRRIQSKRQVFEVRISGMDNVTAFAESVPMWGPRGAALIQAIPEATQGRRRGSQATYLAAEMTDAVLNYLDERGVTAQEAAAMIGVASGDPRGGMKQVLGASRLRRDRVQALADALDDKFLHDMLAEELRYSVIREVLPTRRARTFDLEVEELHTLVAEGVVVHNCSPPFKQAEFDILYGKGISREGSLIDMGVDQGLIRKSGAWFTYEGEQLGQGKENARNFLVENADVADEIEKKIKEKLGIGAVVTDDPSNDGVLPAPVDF
# Arbovirus inh repeat: also measured in Arbovirus inh; calls as there; inhibition, %; measured here: 10K subset replicate screen; many hits read low in the repeat;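 first of two repeat runs on a subset; 0% = infected and 100% = uninfected wells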
# The depositor's hits bear a star; i = inactive; ? = inconclusive; / = no result given. A portion of the library; the hit share may differ from the screen's.
SMILES,Arbovirus inh,YopH inh,Mtb growth,Mtb betalactam,RecA splice inh,others
Cc1ccc(-n2c(O)c(/C=N/c3ncn[nH]3)c3ccccc3c2=O)cc1,0,/,-3%,0,-4.5,
COc1cccc(CNC(=O)c2c[nH]n3c(=O)c(Cl)c(C)nc23)c1,28,-4,-5%,-2,2.7,
CC1(C)C2CCC13CS(=O)(=O)NC3C2 (stereo unspecified),7,34,9%,13,0.7,
CCOC(=O)Cc1csc(NC(=O)c2cc3c(s2)CCCC3)n1,-34,-15,7%,58,1.8,
c1cncc(-c2nc(-c3ccc4c(c3)OCCO4)cs2)c1,/,/,/,86,7.5,
COc1c(/C=N/NC(=O)c2ccncc2)c(CCN(C)C(C)=O)cc2c1OCO2,/,/,?,99,-1.0,
Nc1ccccc1N1CCOCC1,-3,-20,0%,-1,0.5,
O=C(C[n+]1ccc2c(c1)nnn2-c1ccccc1)c1ccc(Cl)cc1,/,/,13%,-6,2.6,
CCOC(=O)CSc1nnc(-c2ccc(S(=O)(=O)N3CCC(C)CC3)cc2)o1,9,-23,?,100,/,
COc1cc(NC(=O)N2CCNC2=O)cc(C(=O)Nc2cccc(C(F)(F)F)c2)c1,/,/,-6%,1,0.7,
O=C(CN1C(=O)c2ccccc2C1=O)OCC(=O)N1CCc2ccccc2C1,3,-13,0%,-1,-2.2,
CC(C)c1cc(C(=O)Nc2ccc3c(c2)OCO3)no1,-15,-34,11%,-4,0.6,Arbovirus inh repeat=-8
COc1ccc(CC(=O)Nc2oc(-c3ccccc3)c(-c3ccccc3)c2C#N)cc1OC,12,-29,-10%,-2,0.8,Arbovirus inh repeat=3
Cc1cccc(S(=O)(=O)Nc2ccncc2)c1,/,/,/,-3,-0.8,
Fc1ccc(/C=C/c2nnc(-c3cccs3)o2)cc1,5,-21,5%,35,/,
Cc1cc(C)n2nc(SCC(=O)N/N=C/c3cccc(Br)c3)nc2n1,1,-6,-5%,0,-1.8,
Cc1ccc(S(=O)(=O)Cc2sc3ccccc3[n+]2C)cc1,-7,-16,-12%,2,-2.3,
O=S(=O)(Nc1ccccc1Cl)c1ccc(NS(=O)(=O)c2cccs2)cc1,/,/,/,-2,1.5,
O=c1[nH]c2cc3c(cc2cc1CN(Cc1ccc2c(c1)OCO2)Cc1nnnn1CC1CCCO1)OCO3 (stereo unspecified),-7,16,5%,35,-1.4,
COc1ccc(/C=N/NC(=O)C2c3ccccc3Oc3ccccc32)c(OC)c1,-2,-13,/,-2,-2.3,
COc1ccc(N2C(=O)C3CCCN3C2c2ccc(C)cc2)cc1Cl (stereo unspecified),-3,-33,7%,-7,0.1,
COCCSc1ccccc1C(=O)Nc1ccc2c(c1)OCO2,8,/,-4%,0,-1.9,
Cc1c(C)c2ccc(OCC(=O)N3CCN(C(=O)C4COc5ccccc5O4)CC3)cc2oc1=O (stereo unspecified),/,/,/,8,3.3,
O=C(N1CCOCC1)N1CCN(c2nc(-c3ccccc3)cs2)CC1,-4,-15,-3%,/,-0.1,
CC1CCN(CCc2nc3cc(NC(=O)COc4ccccc4)ccc3n2C)CC1,/,/,/,-1,0.4,
CC(=O)c1cccc(NC(=S)NC(=O)c2ccccc2Cl)c1,7,25,6%,-2,5.4,
COc1cccc(CNC(=O)c2nnn(CC(=O)Nc3ccc4c(c3)OCO4)c2N)c1,-6,/,-3%,-2,-1.1,
Cc1cccc(C)c1NC(=S)N1CCC(c2ccccc2)C1 (stereo unspecified),10,/,2%,-8,-0.9,
Cc1nn(Cc2ccc(Cl)cc2Cl)c(C)c1NC(=O)c1nc2n(n1)C(C(F)F)CC(C)N2 (stereo unspecified),9,5,-1%,/,/,
CC(=O)c1ccc(N2CCN(C(=O)CCS(=O)(=O)c3ccc(C)cc3)CC2)cc1,2,5,2%,21,/,

# Random excerpt: 7 records from the list.
SMILES,Arbovirus inh,YopH inh,Mtb growth,Mtb betalactam,RecA splice inh,others
CC(=O)c1ccc(N2CCN(C(=O)CCS(=O)(=O)c3ccc(C)cc3)CC2)cc1,2,5,2%,21,/,
Cc1cc(C)n2nc(SCC(=O)N/N=C/c3cccc(Br)c3)nc2n1,1,-6,-5%,0,-1.8,
Cc1ccc(S(=O)(=O)Cc2sc3ccccc3[n+]2C)cc1,-7,-16,-12%,2,-2.3,
COc1ccc(N2C(=O)C3CCCN3C2c2ccc(C)cc2)cc1Cl (stereo unspecified),-3,-33,7%,-7,0.1,
Cc1nn(Cc2ccc(Cl)cc2Cl)c(C)c1NC(=O)c1nc2n(n1)C(C(F)F)CC(C)N2 (stereo unspecified),9,5,-1%,/,/,
O=C(N1CCOCC1)N1CCN(c2nc(-c3ccccc3)cs2)CC1,-4,-15,-3%,/,-0.1,
COCCSc1ccccc1C(=O)Nc1ccc2c(c1)OCO2,8,/,-4%,0,-1.9,

# (list continues)
SMILES,Arbovirus inh,YopH inh,Mtb growth,Mtb betalactam,RecA splice inh,others
CCCc1c(O)nc(SC2CC(=O)N(c3ccc(OC)cc3)C2=O)[nH]c1=O (stereo unspecified),/,/,-4%,-3,-1.3,
O=S(=O)(N/N=C/c1cn(Cc2ccccc2)c2ccccc12)c1ccccc1,-18,5,2%,-20,11,
CNC(=O)CSc1nnc(SCCC(=O)O)s1,3,-5,-3%,1,0.6,
Cc1cccn2c(=O)c(C=C(C#N)C#N)c(N3CCN(C)CC3)nc12,/,/,/,4,-74,
O=C(Nc1ccc(Cl)c([N+](=O)[O-])c1)c1ccc2c(c1)OCCO2,18,/,-6%,2,-1.1,
CN(CC(=O)NCc1ccccc1)S(=O)(=O)c1ccc2c(c1)CCC(=O)N2,/,/,/,2,1.6,
COc1ccc(-c2csc(/N=C/N(C)C)n2)cc1OC,-11,/,-3%,2,-0.6,
O=C(NCCN1CCCC1)C1CCC(=O)N(CCCN2CCOCC2)C1 (stereo unspecified),/,/,/,1,0.8,
Cc1cc(C)c(C(=O)Nc2ccc(C)c(C)c2)c(CC(C)(C)C(=O)O)c1,/,/,-6%,-5,-1.6,
Cc1ccc(OC/C(O)=C(\C#N)c2nc3ccccc3s2)cc1,4,-24,64%,88,-1.9,
CC(C)CCNC(=O)c1cn(C)c2ccc(S(=O)(=O)N3CCCC3)cc2c1=O,/,/,/,4,-1.5,
O=C(COc1ccccc1C(=O)O)NC1CCCc2ccccc21 (stereo unspecified),12,/,4%,-2,-1.9,
Nc1nc(SCC(=O)NCCCN2CCOCC2)nc2sc3c(c12)CCC3,2,-8,-8%,-1,-1.5,
COc1ccc(CCN(C)CCC(=O)Nc2cc(C)ccc2C)cc1OC,8,-32,1%,3,0.7,
CC(C)Oc1cccc(C(=O)C2CCCN(C(=O)c3csnn3)C2)c1 (stereo unspecified),9,/,1%,-6,52*,
CCCN1C2CCCC1CC(NC(=S)Nc1cc(C)cc(C)c1)C2 (stereo unspecified),-2,/,1%,-1,-1.2,
Cc1ccc(-c2cc3c(n2-c2ccc(C(=O)O)cc2)CCCC3=O)cc1,6,-6,-6%,-4,0.8,
CCCN1CCC2(CC1)NC(C(=O)O)Cc1c2[nH]c2ccccc12 (stereo unspecified),/,/,/,1,-2.1,
O=C(COc1cccc(C(F)(F)F)c1)N1CCN(c2ccccc2O)CC1,-11,/,11%,-1,0.4,
CC(C)c1ccc(-n2ccnc2SCC(=O)O)cc1,5,/,-4%,-6,0.7,
O=C(CN1CCCCC1)Nc1nc(-c2ccc(Cl)cc2)cs1,/,/,/,62,0.1,
CC1CCCC(C)N1C(=O)CN1C(=O)C(C)(C)Oc2ccc(C(=O)NC3CCCCC3)cc21 (stereo unspecified),7,-25,-9%,2,2.3,
Cc1ccc(-c2nc3ccccc3s2)cc1NC(=O)c1ccc2c(c1)OCO2,-9,-6,-5%,6,1.1,
COc1ccc(S(=O)(=O)NCC2CCC(C(=O)NCc3cccnc3)CC2)cc1 (stereo unspecified),-5,/,1%,5,-2.2,
OC(COC(c1ccccc1)c1ccccc1)CN1CCN(c2ccccn2)CC1 (stereo unspecified),-1,-19,4%,2,-0.1,
CCN(C(=O)c1ccc(Br)o1)C1CCS(=O)(=O)C1 (stereo unspecified),/,/,/,2,2.0,
Cc1ccc(-c2nc(N)n(S(C)(=O)=O)n2)cc1,4,30,-11%,-17,0.9,
Cc1cccc(NC(=O)CSc2nnc(C3CC3)n2CC2CCCO2)c1 (stereo unspecified),/,/,/,-2,-8.5,
C[C@@H]1CCCCCCCCCCC1=O,/,/,/,-3,-2.1,
COc1ccc2oc(=O)c(C(=O)Oc3ccc(NC(C)=O)cc3)cc2c1,0,-65,-15%,9,-10,
N=c1oc2cc(O)ccc2cc1C(=O)Nc1ccc(Cl)cc1,/,/,/,93,i,
CCOC(=O)C1CCN(C(=O)c2ccc3c(c2)OCO3)CC1,-2,-34,-8%,-6,-1.7,
O=C(/C=C/c1cccs1)NC1CCS(=O)(=O)C1 (stereo unspecified),4,/,-9%,-1,5.8,
CCN1CCCC1CNC(=O)c1cc2c(C)nc3ccccc3c2o1 (stereo unspecified),-1,-47,-1%,-1,4.4,
CC1=NOC2(C1)/C(=N/O)CCC/C2=N\O (stereo unspecified),-1,-30,-6%,-11,-0.1,
Cc1ccc(-n2nnc(-c3cc4ccccc4n3C)n2)cc1,3,/,-7%,-3,1.9,
O=C(Nc1nnc(C2=COCCO2)o1)c1cccc(C(F)(F)F)c1,/,/,/,96,-0.2,
O=C(/C=C/c1ccc(Cl)cc1Cl)NC(=S)Nc1ccc(CN2CCOCC2)cc1,5,-17,-3%,1,-0.7,
C1CCCC(NC2=NCCO2)CCC1,/,/,-19%,1,0.7,
O=C(COc1cccnc1[N+](=O)[O-])N1CCN(S(=O)(=O)c2ccccc2)CC1,-7,2,1%,-9,-1.1,
COc1ccc(NC(=S)NCCN2CCOCC2)c(OC)c1,/,-26,-4%,-7,-0.1,
CCC(=O)Nc1nnc(S(=O)(=O)N2CCCCCC2)s1,/,/,/,-3,-2.2,
COC(=O)c1cc(C(=O)c2ccc(C(C)(C)C)cc2)c[nH]1,-2,/,79%,68,0.8,
O=Cc1cn(CC(=O)NCC2CCCO2)c2ccccc12 (stereo unspecified),5,-29,2%,-6,0.7,
Cc1ccccc1CC1(CO)CCCN(C(=O)CCC(=O)c2ccccc2)C1 (stereo unspecified),-4,/,0%,-4,/,
CCOC(=O)c1c(S(=O)(=O)N2CCN(C3CCCCC3)CC2)c(C)n(C)c1C,/,/,/,0,-4.8,
CCOC(=O)C(NC(=O)CCl)(Nc1ccc(C(O)(C(=O)OCC)C(F)(F)F)cc1)C(F)(F)F (stereo unspecified),6,-1,3%,2,6.8,
Cc1cccc(NC(=O)c2cc(=O)c3ccccc3o2)n1,9,-19,-4%,4,-1.5,
O=C(CCNC(=O)c1ccc(Cl)cc1)Nc1cccc(S(=O)(=O)N2CCCCCC2)c1,/,/,/,3,0.2,
CN(C)C1C(=O)C(C(N)=O)=C(O)C2(O)C(=O)C3=C(O)c4c(O)cccc4C(C)(O)C3C(O)C12 (stereo unspecified),/,/,/,73,-6.2,
O=C(CN1CCc2cc3c(cc2C1)OCCCO3)Nc1ccccc1,/,/,/,-10,2.0,
CCSc1nnc(NC(=O)[C@H](C)N2C(=O)C3CC=CCC3C2=O)s1 (stereo partly specified),2,/,?,100,-3.3,
Cn1cccc1/C=N/NC(=O)c1ccn[nH]1,-2,-26,-4%,-2,-0.4,
O=C(CSc1nc2ncc(Cl)cc2[nH]1)NCCc1ccc(F)cc1,-1,/,-2%,46,/,
C=CCOc1ccc(/C=N/NC(=O)C(C)Sc2ccccn2)cc1OC (stereo unspecified),-6,-19,2%,0,-0.8,
CC(=O)Nc1ccc(NC(=O)C(OC(=O)c2ccccc2)C(OC(=O)c2ccccc2)C(=O)O)cc1 (stereo unspecified),2,/,-2%,-5,1.4,
CCN1C(=O)CC(NNC(=O)c2ccc(Cl)cc2)C1=O (stereo unspecified),-1,1,2%,-2,-1.3,
CCCn1c(O)c(N=Nc2ccc3ccccc3n2)c2ccccc21,5,-22,-1%,2,-3.4,
CN(C)c1ccc(NC(=S)NC(=O)/C=C/c2ccco2)cc1,5,/,-8%,-5,-2.9,
CC(C)NC(=O)c1ccc2c(c1)N(CC(=O)N1CCOCC1)C(=O)C(C)(C)O2,3,-35,-4%,-13,-1.0,
